# S aureus helic: blocks Staphylococcus aureus DNA helicase | purified S. aureus helicase, fluorescence unwinding assay; about half of the hits fall short of the stated cut | inhibition, %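 (tested at about 80 µM)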 | 120,000 tested, 0.05% active | AID 485395;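 active = both duplicates at 50% or more, or one of them with a favoured structure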;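 note: 0% = mean of negative control wells and 100% = mean of positive control wells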
# MgrA-DNA mod: S. aureus MgrA-DNA binding modulation. fluorescence polarization. inhibition, %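 (about 10 µg/mL by stock and volumes)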. 84,000 tested, 0.13% active;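 active = above 50% in either of two replicates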;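 note: 0% = protein plus DNA without compound and 100% = DNA alone without protein; higher means less MgrA bound to DNA so lower polarization; one replicate is shown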
# * marks the source's active call; other numbers are inactive results; nt = no result given. Not all compounds are listed, so the mix of outcomes need not match the whole.
SMILES,S aureus helic,MgrA-DNA mod
CC(C)(C)n1cnc2cc(NCc3cccs3)ccc21,45.0,nt
O=C1CCCN1c1ccc(S(=O)(=O)NC2CC2)c(Cl)c1,-1.0,-1.6
N#Cc1cccc(NC(=S)Nc2ccccc2)c1,0.0,-0.1
Cc1ccc2[nH]c3c(c2c1)CCCC3N1CCOCC1 (stereo not given),1.0,nt
N#CCCn1nc(-c2ccc(F)cc2)ccc1=O,nt,-2.1
Cc1nnc(-c2cccc(S(=O)(=O)N3CCN(C(c4ccccc4)c4ccccc4)CC3)c2)o1,14.0,nt
O=C(NCCCn1ccnc1)c1cnn2c1NC(c1ccccc1)CC2C(F)(F)F (stereo not given),-13.0,0.8
NC(=O)N/N=C1\CCOc2ccc3ccccc3c21,nt,1.2
O=C(NCc1ccccc1)c1ccc2ccccc2n1,-23.0,0.8
CCN(CC)C(=O)CN1C(=O)c2cccc3cccc1c23,8.0,nt
Cc1cc(C)nc(SCC(=O)OCc2cc(=O)n3cc(Br)ccc3n2)n1,11.0,nt
CCCN1CCN(C(=O)CC(=O)Nc2ccc3nc4n(c(=O)c3c2)CCCCC4)CC1,7.0,nt
COc1cccc(C2=NS(=O)(=O)N(C)C(C(=O)N3CCCC3)=C2)c1,-25.0,nt
CC(C)Oc1cccc(C(=O)n2cnnc2N)c1,1.0,8.1
Cc1[nH]n(-c2ccccc2)c(=O)c1/C=C1\C=NN=C1c1ccccc1,-2.0,1.6
CCOC(=O)c1c(C)[nH]c(C)c1C(=O)COC(=O)CSc1nc2ccccc2o1,-14.0,nt
CC(=O)Nc1sc(C)c(C)c1CN1CCCC(C)C1 (stereo not given),21.0,nt
COCCNC(=O)c1ccccc1NS(=O)(=O)c1ccc(NC(C)=O)cc1,20.0,-0.5
CC(=O)Nc1cccc(NC(=O)c2c(F)c(F)c(F)c(F)c2F)c1,1.0,nt
O=C(COc1ccc(Cl)cc1Cl)NCC12C=CC(O1)C1C(=O)N(Cc3ccccc3)C(=O)C12 (stereo not given),9.0,nt
CCN(CC)Cc1cc(N=O)c2cccnc2c1O,-23.0,nt
C=CCN1C(=O)C(Cc2ccc(O)cc2)NC1=S (stereo not given),7.0,0.8
CCn1c(Cc2ccccc2)nnc1SCc1ccc(C#N)cc1,7.0,-0.4
O=C(Oc1ccccc1-c1nnco1)c1ccc(Cl)cc1,-16.0,nt
O=C(CCCn1c2ccccc2c2cn[nH]c(=O)c21)NCC1CCCO1 (stereo not given),-20.0,nt

# Whole records as entered above:
# Cc1cc(C)nc(SCC(=O)OCc2cc(=O)n3cc(Br)ccc3n2)n1 is entered as S aureus helic = 11.0; MgrA-DNA mod = nt
# CCN(CC)C(=O)CN1C(=O)c2cccc3cccc1c23 is entered as S aureus helic = 8.0; MgrA-DNA mod = nt

# Continued.
SMILES,S aureus helic,MgrA-DNA mod
Cc1ccc(S(=O)(=O)OCC(NC(=O)OC(C)(C)C)C(=O)OCc2ccccc2)cc1 (stereo not given),nt,-3.3
CN(C)c1ccc(/C=C2/SC(=S)N(CCCCC(C(=O)O)N3C(=O)/C(=C\c4ccc(N(C)C)cc4)SC3=S)C2=O)cc1 (stereo not given),nt,1.6
COc1ccccc1NC(=O)c1ccc(S(=O)(=O)N(C)C)cc1,-21.0,nt
CCCNC(=O)c1ccc2c(c1)C(=O)N(CCC)C2O (stereo not given),2.0,nt
Cc1cc(NC(=O)CCC(=O)N(Cc2ccccc2)C2(C(=O)NC3CCCCC3)CCCC2)no1,1.0,0.8
N#CCCn1cc(C(=O)Nc2ccc(C(=O)O)cc2)c(-c2cccc(Br)c2)n1,-1.0,-1.1
COC(=O)c1ccc(C2Nc3ccccc3-c3nnc(SC)nc3O2)cc1 (stereo not given),nt,-1.6
Cc1[nH]c2ccccc2c1Cc1nnc(SCc2ccccc2)o1,-18.0,nt
COc1ccc(CCNc2nc(C)cc(C)n2)cc1OC,1.0,-2.0
Cc1ccc(S(=O)(=O)Nc2ccc3c(c2)nc2n3CCN(Cc3ccccc3)C2)cc1,35.0,nt
C=C(C)C(=O)Oc1cccc(N2C(=O)CCC2=O)c1,-5.0,-2.0
CCCCNC(=O)c1ccc2c(c1)ncn2C1CCCC1,7.0,nt
O=C(Nc1ccccc1C(=O)NC1CCCCNC1=O)c1ccc(Cl)cc1 (stereo not given),nt,-1.1
Cn1ccnc1SCC(=O)NC1CCCCC1,-5.0,-3.5
COc1cc2c(cc1OC)CN(C(=O)c1ccc3c(c1)CCC3)CC2,10.0,nt
Cc1cccc(O)c1O,-13.0,nt
O=C1/C(=C/c2ccncc2)COc2ccccc21,-15.0,nt
CC(C)OC(=O)/C=C/c1cn(-c2ccccc2)nc1-c1cccs1,12.0,-1.1
Cc1ccc(S(=O)(=O)N2CCCC2C(=O)Nn2cnnc2)cc1 (stereo not given),11.0,0.6
O=C(O)Cn1c(CN2CCCCC2)nc2ccccc21,4.0,-4.1
COC(=O)N1CCN(c2ccc(C)cc2)C(C)C1 (stereo not given),12.0,-0.5
Clc1ccc(-c2cnc(Oc3ccccc3)nc2)cc1,nt,2.4
O=C(Cc1ccccc1)NCCCc1nc2ccccc2[nH]1,5.0,nt
O=C(Nc1cc(-c2cccc(F)c2)no1)c1ccc2c(Cl)c3c(nc2c1)CCCC3,2.0,nt
Cc1[nH]nc2c1C(=O)CC(C)(C)C2,5.0,1.1

# Part of the list above in order of heavy-atom count, lowest first.
SMILES,S aureus helic,MgrA-DNA mod
C=C(C)C(=O)Oc1cccc(N2C(=O)CCC2=O)c1,-5.0,-2.0
CCCNC(=O)c1ccc2c(c1)C(=O)N(CCC)C2O (stereo not given),2.0,nt
N#CCCn1cc(C(=O)Nc2ccc(C(=O)O)cc2)c(-c2cccc(Br)c2)n1,-1.0,-1.1

# The listing continues:
SMILES,S aureus helic,MgrA-DNA mod
CC(=O)Nc1ccc(NC(=O)C(C)C)nc1,9.0,-1.2
COc1ccc(C2=NN(C(=O)c3ccccc3O)C(O)(C(F)(F)F)C2)cc1 (stereo not given),10.0,-1.3
C[n+]1ccc(/C=C/c2cccs2)cc1,8.0,-0.3
Cc1ccccc1S(=O)(=O)Cc1ccc(C(=O)NCCN2CCN(c3cccc(Cl)c3)CC2)o1,14.0,nt
CC(C)CC1C(C#N)=C(N)OC2=C1C(=O)CCC2 (stereo not given),-4.0,nt
COc1ccc(S(=O)(=O)/N=C2/NC(=O)/C(=C3/C(=O)N(C)c4ccccc43)S2)cc1,nt,-3.1
O=C(Nc1ccccc1)N1CCN(c2nnc(-c3ccccc3)c3ccccc23)CC1,14.0,1.3
Cc1ccc(C2C(C(=O)c3ccco3)=C(O)C(=O)N2c2ccccn2)cc1 (stereo not given),-6.0,nt
CN(Cc1ccccc1)C(=O)C1CCCN(Cc2ccc(Cl)cc2)C1 (stereo not given),10.0,1.1
Cc1cc2nc(N3CCc4ccccc4C3)c3ccccc3n2n1,5.0,nt
Cc1cc(=O)n2c3c(cc(S(=O)(=O)N(C)c4ccccc4)cc13)CCC2,-1.0,-1.3
CCCCS(=O)(=O)NC1=NCN(Cc2ccco2)CN1,8.0,0.8
N#Cc1ccccc1-c1ccccc1C#N,nt,-1.0
CN/N=C/c1cn(-c2ccccc2)nc1-c1cccs1,1.0,nt
O=C(c1ncoc1-c1cccs1)N1CCN(C(c2ccccc2)c2ccccc2)CC1,2.0,-1.9
CC(OC(=O)C1=NN(c2ccccc2)C(=O)CC1)C(=O)Nc1ccc(S(N)(=O)=O)cc1 (stereo not given),16.0,nt
Cc1cc(C)n(C(CC(=O)N2CCc3ccccc3C2)C(=O)O)n1 (stereo not given),-4.0,2.5
COc1ccc([N+](=O)[O-])c(OC)c1C(=O)NCC1CC1,nt,-0.4
Cc1ccc(CCC(=O)C(C#N)c2nc3ccccc3s2)o1 (stereo not given),-12.0,38.0
O=C(Cc1nc2scc(-c3ccccc3)c2c(=O)[nH]1)N1CCOCC1,-5.0,nt
CCN1CN=C(SCc2c(C)c(C)c(C)c(C)c2C)NC1,nt,3.0
O=S1(=O)C=CC(Nc2ncnc3c2oc2ccccc23)C1 (stereo not given),7.0,nt
CN(C(=O)c1c[nH]c(=O)cc1C(F)(F)F)c1ccc(Cl)cc1,nt,0.9
O=C(NC1CCCC1)c1cncc(NS(=O)(=O)c2ccccc2)c1,16.0,nt
CN(C)CCCNc1oc(-c2ccc(F)cc2)nc1C#N,11.0,0.0
SMILES,S aureus helic,MgrA-DNA mod
CCOc1ccc(-n2c(=O)c3cc4c(=O)n(-c5ccc(OCC)cc5)c(=O)c4cc3c2=O)cc1,nt,-0.2
O=C1N=C(N2CCCC2)S/C1=C\c1ccccc1O,2.0,2.4
Cc1c(C(=O)NC2CCCCC2)c(C)n2cn[nH]c(=O)c12,18.0,-3.4
CCOC(=O)c1cc(NC(=O)c2ccccc2)c(=O)n2c1oc1ccccc12,2.0,1.5
COc1cccc(-c2noc(CCC(=O)N3CCCC3)n2)c1,-20.0,nt
Cc1ccc(C=Nc2ccc(N=Cc3ccc(C)s3)cc2)s1,11.0,1.0
Cc1ccc(S(=O)(=O)N(c2nc(NC(C)C)nc(NC(C)C)n2)n2cnnc2)cc1,-5.0,-5.2
CC(C)N(Cc1ccccc1)C(=O)[C@H]1[C@@H]2C[C@@H]3[C@H]1C(=O)O[C@@H]3C2,-13.0,nt
COc1ccc2c(c1)-c1c(ssc1=S)C(C)(C)N2,7.0,-0.8
CCOc1ccc(CCNC(=O)C(C)N2C(=O)CC(C)(C)Sc3ccccc32)cc1 (stereo not given),-5.0,9.3
Cc1cccc(Cn2c(=O)n(Cc3ccco3)c(=O)c3ccccc32)c1,6.0,nt
C=CCOc1cccc(C(Nc2cccc(C)n2)c2ccc3cccnc3c2O)c1 (stereo not given),4.0,nt
COc1cccc(NC(=O)NCc2noc3ccccc23)c1,-17.0,nt
C=CCn1cnc2scc(-c3ccccc3)c2c1=O,18.0,-4.0
Cc1ccc2cc(CCNC(=O)/C=C\c3ccc4c(c3)OCO4)c(=O)[nH]c2c1,-15.0,nt
Cc1ccc(Nc2scc(C)[n+]2C)c(C)c1,nt,-1.6
CN(C)c1ccc(/C=C2\Sc3ccc4ccccc4c3C2=O)cc1,nt,4.5
CC(C)C(=O)NNc1cc(C(F)(F)F)ccn1,-22.0,nt
CCS(=O)(=O)c1ccc2oc(SCc3ccc(F)cc3)nc2c1,10.0,nt
Cc1nc2ccccc2n1CC(N)=O,-17.0,nt
CC(=O)NC(C(=O)O)C(C)(C)SN=O (stereo not given),nt,1.3
O=S(=O)(Nc1ccc(SC(F)F)cc1)c1ccccc1C(F)(F)F,-1.0,nt
Cc1ccc(S(=O)(=O)NC2CC2)cc1C(N)=O,-11.0,1.6
COc1ccc(S(=O)(=O)N2CCc3ccccc32)cc1C(=O)O,-5.0,nt
CC(C)C(=O)Nc1nsc(-c2ccc(Cl)cc2)n1,12.0,nt
SMILES,S aureus helic,MgrA-DNA mod
C=CCc1c(C)nc2c(OC)cccc2c1Cl,6.0,nt
O=C(NCC(c1ccco1)N1CCCCC1)c1ccccc1C(F)(F)F (stereo not given),-10.0,nt
COc1ccc(/C=N/OCC(=O)Nc2ccc3c(c2)OCO3)c(OC)c1,-14.0,nt
O=C(OC(C(=O)NCc1ccc2c(c1)OCO2)c1ccncc1)c1ccc(Cl)nc1 (stereo not given),7.0,-2.4
O=C(/C=C/Sc1nc2cc(Cl)c(F)cc2[nH]1)c1ccccc1,nt,-3.0
CC1(C)CC(=O)CC(C)(C)N1OC(=O)c1ccccn1,-7.0,-0.7
COc1ccc(-c2cc(C(=O)N(C)C)c3ccccc3n2)cc1,-8.0,-2.5
O=C(CC1SC(=NCc2ccccc2)NC1=O)NCc1ccccc1 (stereo not given),-2.0,nt
CCCc1nnc(NC(=O)C(CC)Sc2nnc3c(n2)[nH]c2ccccc23)s1 (stereo not given),-1.0,1.1
O=c1cnnc(N2CCCCC2)[nH]1,7.0,1.0
CCNC(=O)c1cccc(NC(=O)CCCc2nc3ccccc3c(=O)[nH]2)c1,-7.0,nt
O=c1cnn(Cc2cccc(C(F)(F)F)c2)c2ccccc12,-6.0,nt
COC(=O)c1ccc(Cl)c(N)c1,-15.0,nt
Cc1ccc2c(c1)c1nc3n(c(=O)c1n2CC(=O)NCc1ccco1)CCS3,7.0,-3.9
Cc1ccc(NCc2nnc(SCc3cc(C)ccc3C)o2)c(C)c1,12.0,-0.8
COc1ccc(C2C(C(=O)Nc3cccc(C)n3)c3ccccc3C(=O)N2C)cc1 (stereo not given),-15.0,nt
O=Nc1cc(CN2CCOCC2)c(O)c2ncccc12,9.0,nt
Cc1ccc(Cn2c(SCC(C)C)nc3c2c(=O)n(C)c(=O)n3C)cc1,6.0,nt
CCN(c1ccccc1)c1nc2nonc2nc1N(C)C,5.0,nt
Cc1cc(C)c(-c2cc(C(F)(F)F)nc(-c3ccccc3)n2)c(=O)[nH]1,8.0,4.9
S=C(Nc1ccccc1)Nc1nc2ccccc2n1Cc1ccc(Cl)cc1,0.0,6.5
O=C1c2ccccc2NC(c2ccccc2)N1CCCN1CCOCC1 (stereo not given),nt,0.4
Cc1ccc(Cl)c(C(=O)NC2=CC(=O)CC(C)(C)C2)c1,16.0,-4.3
CN(Cc1ccco1)C(=O)c1noc2c1CSc1ccccc1-2,-24.0,nt
O=[N+]([O-])c1cc(C(F)(F)F)c(N2CCCCC2)cc1N1CCCCC1,nt,4.0
Cc1cc(=O)n2c3ccccc3nc2n1Cc1ccccc1,-23.0,nt
Cc1cc(C)c(-n2c(O)c(C=Nc3cccc(O)c3)c(=O)[nH]c2=O)c(C)c1,-14.0,-0.7

# Some of these compounds in order of the S aureus helic value, descending.
SMILES,S aureus helic,MgrA-DNA mod
Cc1ccc(Cl)c(C(=O)NC2=CC(=O)CC(C)(C)C2)c1,16.0,-4.3
O=c1cnnc(N2CCCCC2)[nH]1,7.0,1.0
CCN(c1ccccc1)c1nc2nonc2nc1N(C)C,5.0,nt
COc1ccc(/C=N/OCC(=O)Nc2ccc3c(c2)OCO3)c(OC)c1,-14.0,nt
COC(=O)c1ccc(Cl)c(N)c1,-15.0,nt

# Screening results from PubChem BioAssay.
